# Compound activity (PubChem)
# Sa RN4220 lethal = S. aureus RN4220 growth inhibition; inhibition, % (concentration not given with the values); 0.33% of 330,000 active; AID 1259311; OD600, 16 h;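 active = z-score of -3 or lower and OD600 up to 0.18 on both plates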;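 also: plate controls were untreated cells for no effect and reference antibiotic for full effect; stock transfer was 100 nL into about 80 µL; one replicate is shown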
# Bead autofluor = counter-screen for toxin protease inhibitors: compound fluorescence; compound autofluorescence counterscreen, microsphere flow cytometry; active compounds read high; fluorescence intensity (test concentration not listed); 3.1% of 360,000 active; AID 624483;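 active = at least 3 SD above the mean of all compounds, about 16000 in these data; inconclusive = too few beads counted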;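 also: 100 nL of 1 mM stock went into each well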
# Sa ugtP lethal = growth inhibition of S. aureus ugtP deletion strain; S. aureus RN4220 ugtP deletion, OD600 growth, 16 h; some inactives read as strong as hits; growth inhibition, % (concentration not given with the values); 0.54% of 330,000 active;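 active = z-score under -3 and OD600 up to 0.15 on both plates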;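 also: plate controls were untreated wells for no effect and antibiotic for full effect; wells of about 80 µL received 100 nL stock; the first replicate is given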
# Mtb hypoxia inh = inhibitors of hypoxia-regulated fluorescent reporter in Mycobacterium tuberculosis. M. tuberculosis hypoxia-regulated fluorescent reporter, fluorescence. fluorescence inhibition, % (test concentration not listed). 0.1% of 300,000 active. AID 1159583;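 active = 35 to 45% if threefold the growth effect, above 45% if 1.5-fold the growth effect; inactive = the rest, general growth blockers included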;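 also: wells of about 50 µL received 100 nL stock; 0% = vehicle wells and 100% = reference inhibitor wells; whole bacteria with a GFP reporter of the hypoxia response; strong numbers were not always called active; many hits fall short of the cut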
# BJeLR viability = BJeLR cell viability loss | BJeLR (HRASV12) viability, CellTiter-Glo ATP luminescence, 48 h; reference of the scale not given here | inhibition, % (concentration not given with the values) | 0.17% of 300,000 active;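 active = replicate mean above 50%; inconclusive = above 50% but judged a plate artefact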;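 also: 50 nL library stock added to about 25 µL; numbers are from one replicate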
# PrP UTR inh = suppresses PrP 5' UTR mRNA reporter expression | cell-based PrP 5' UTR mRNA reporter, plate reader | inhibition, % (concentration not given with the values) | 0.35% of 340,000 active | AID 488862;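 active = every replicate at 50% or more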;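 also: 0 = median of the neutral control wells; tested in H4 reporter cells; numbers are from one replicate; inactives centre near -14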
# Mtb hypoxia inh growth = recorded beside Mtb hypoxia inh, whose call it bears; growth inhibition, %; measured here: M. tuberculosis growth (absorbance);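 0% = vehicle and 100% = reference antibiotic; read after six days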
# * hit, by the source's call; ? = inconclusive; nt = not tested or not shown. Compounds as they come. Share with any hit: about 4.1%.
SMILES,Sa RN4220 lethal,Bead autofluor,Sa ugtP lethal,Mtb hypoxia inh,Mtb hypoxia inh growth,BJeLR viability,PrP UTR inh
COc1ccccc1/C=N/NC(=O)CN(C1=NS(=O)(=O)c2ccccc21)c1ccccc1,nt,2076,nt,nt,nt,0,-4
O=C(Cc1ccccc1)NC(c1ccccc1)P(=O)(O)CO (configuration not stated),6.5,nt,11,-7,-19,nt,nt
Cc1cccc(-c2noc(CNC(=O)c3ccc4c(c3)OCO4)n2)c1,-7.0,6135,4,10,13,2,-22
CC(C)OP(C)(=O)CN1CCN(CP(C)(=O)OC(C)C)CC1 (configuration not stated),3.0,8353,1,-7,4,4,-9
O=[N+]([O-])c1ccc(N/N=C/c2cccs2)nc1,nt,4324,nt,nt,nt,8,-91
CCOC(=O)C1CCCN(C(=S)NC(=O)c2cc(Br)ccc2Cl)C1 (configuration not stated),4.2,6096,1,9,3,nt,-6
COc1ccc(N2C(=NC(=O)C3CCCCC3)SC3CS(=O)(=O)CC32)cc1OC (configuration not stated),3.3,5194,15,12,-4,7,-4
Cc1csc2c(NC3CCN(Cc4ccccc4)CC3)ncnc12,1.4,6261,1,12,24,0,-55
O=S(=O)(c1cc(Cl)ccc1Cl)N1CCC2(CC1)OCCO2,1.5,5973,5,4,5,6,-21
CCOc1ccc(C2C(C(=O)/C=C/c3ccco3)=C(O)C(=O)N2CCN2CCOCC2)cc1OC (configuration not stated),2.7,4105,5,-8,5,4,-19
O=C(COC(=O)c1ccc([N+](=O)[O-])s1)NCCc1ccccc1,8.2,nt,4,16,-6,nt,nt
CC12CCC(=O)N1C(C(=O)NNC(=O)COc1ccc(Br)cc1)CS2 (configuration not stated),1.1,?,0,-2,-7,-11,-21
c1ccc(CNCc2ccc3c(c2)OCO3)nc1,0.2,10276,3,-3,-1,1,-11
Cc1cc(C=NNC(N)=S)c(O)c(C=NNC(N)=S)c1,5.4,nt,15,14,14,nt,nt
Cc1ccccc1N1C(=O)NC(=O)/C(=C\c2cc(C)n(C)c2C)C1=O,nt,2556,nt,nt,nt,4,-7
O=C(COC(=O)/C=C/c1cccc(Br)c1)NC1CC1,-1.1,nt,0,9,0,nt,nt
COC(=O)c1ccc(N2CCN(CC(=O)c3ccc(C)cc3)CC2)c([N+](=O)[O-])c1,0.5,3764,-7,-3,-4,-2,-10
Cc1cc(C)c(NC(=O)CC(=O)c2ccccc2)c(Cl)c1,8.9,3399,16,1,-9,-8,-47
CC(O)Cn1ccccc1=N (configuration not stated),-0.2,2990,-4,-7,-4,3,2
O=C(Nc1ccc(OC(=O)c2ccccc2)c(-c2nc3ccccc3s2)c1)c1ccccc1,-6.6,3740,-17,13,4,-1,-9
COc1ccccc1NC(=O)C(=O)c1cn(CC(=O)N2CCCC2)c2ccccc12,0.2,4645,0,-1,1,-1,-24
COc1ccc(N2CC(C(=O)Nc3ccccc3C(=O)NC3CC3)CC2=O)cc1 (configuration not stated),1.2,3710,8,8,17,-13,-22
O=C(OCc1ccc(F)cc1Cl)c1ccccn1,0.7,8032,12,13,3,4,nt
CC(=O)OCC(=O)Nc1ccc(SC(F)F)cc1,3.3,3571,-11,1,2,-1,-8
Fc1cccc(NC(=S)Nc2ccc(Br)cc2)c1,29,2299,-3,6,3,-6,-43
Cc1cccc(NC(=O)CSc2ccc(-c3ccccn3)nn2)c1C,6.7,4413,-3,8,-4,-1,-28
CCCC(=O)Nc1cc(C(=O)O)ccc1S(=O)(=O)c1ccc(Cl)cc1,5.0,7891,1,11,5,-8,-36
Cc1c(Br)c([N+](=O)[O-])nn1C(C)C(=O)Nc1nccs1 (configuration not stated),4.5,7918,3,2,1,-6,-3
CC(/C=C/c1ccc2c(c1)OCO2)=N\NC(=O)COc1ccccc1C,nt,10050,nt,nt,nt,-2,-29
O=C(NC(NC(=O)c1ccccc1)c1cccc([N+](=O)[O-])c1)c1ccccc1,3.7,10909,-4,6,0,8,-11
Cc1ccc(F)cc1NC(=O)c1c(-c2ccccc2)noc1C,8.4,4132,10,nt,nt,10,-19
O=C(CCNS(=O)(=O)c1ccccc1)NNC(=O)COc1ccccc1F,6.7,nt,7,10,10,nt,nt
COc1cccc(C2c3[nH]c4ccccc4c3CCN2CCCn2cccn2)c1 (configuration not stated),nt,2214,nt,nt,nt,-6,-12
COc1ccccc1NC(=O)Cc1nnc(SCC(=O)NC2CCCC2)n1C,0.1,5880,5,17,3,-5,-30
Cc1cc(SCC(=O)NN=Cc2ccc(O)c(O)c2)nc2ccccc12,10,nt,-2,3,1,nt,nt
Cc1ccc(-n2c(=O)cc(N3CCCCCC3)[nH]c2=O)cc1,-7.9,5722,-5,7,8,1,-11
CCOc1ccc(N2C(=O)/C(=C/c3cccs3)N(C)C2=S)cc1,6.5,2520,1,0,13,17,-18
COc1ccc(OC2CCN(S(=O)(=O)c3ccc(C(C)=O)cc3)CC2)cc1,1.0,4189,11,0,-3,2,3
Cn1nc(C(F)(F)F)c(-c2cccc(C(F)(F)F)c2)c1NC(=O)Nc1ccc(F)cc1,-1.2,nt,-24,4,5,-1,nt
O=[N+]([O-])c1ccc(Cl)c(S(=O)(=O)Nc2cccc(S(=O)(=O)NC3=NCCC3)c2)c1,-1.3,3562,-3,-6,-3,nt,-8
CNc1oc(Cc2ccccc2)nc1S(=O)(=O)c1ccccc1,5.0,3625,10,2,4,-12,-1
COc1ccc(/C=C/C(=O)NC(=S)Nc2ccc(S(=O)(=O)N=C(N)N)cc2)cc1OC,-0.7,3135,11,15,4,-2,-13
COc1ccc(S(=O)(=O)N2CCOCC2)cc1NC(=O)CSc1nnnn1C1CC1,6.6,6209,8,7,9,nt,-6
COc1ccc(C(=O)/C=C/c2ccc(OC3CSC3)cc2)cc1,14,2385,46,8,-7,3,-24
COc1ccc(N2CCN(C(=O)CN(C)S(=O)(=O)c3cnc[nH]3)CC2)cc1,2.3,9263,0,1,5,-3,-18
C=CCOc1c(Br)cc(/C=N/NC(=O)Cc2ccc(C(F)(F)F)cc2[N+](=O)[O-])cc1OC,nt,2610,nt,nt,nt,9,-15
COc1ccc(-c2nnc(OC)c3ccccc23)cc1,7.7,4236,-1,6,11,0,-14
COCC(=O)Nc1ccccc1C(=O)NC(C)C,3.5,10911,-4,3,2,-14,-28
COc1ccccc1N1C(=NC(=O)C(C)Oc2ccccc2)SC2CS(=O)(=O)CC21 (configuration not stated),-2.6,5023,-6,-7,-6,1,-5
S=C(NCc1cccs1)Nc1ccccc1Cl,nt,2036,nt,nt,nt,8,-30
COC(=O)C1=C(N)Oc2cc(C)oc(=O)c2C1c1cccnc1 (configuration not stated),1.6,6147,0,3,-10,-2,-29
COc1ccc(OCCC(=O)OCC(=O)Nc2cccc(S(=O)(=O)N3CCCCC3)c2)cc1,5.4,3639,5,-1,8,nt,-12
COc1cc(NC(=O)CCCNC(=O)c2ccc(Cl)cc2)cc(OC)c1OC,-0.4,4089,6,-2,-12,4,-16
CCOC(=O)c1cccc(N2C(N)=NC(N)=NC2(C)C)c1,-2.7,2699,4,nt,nt,6,-15
COc1cccc(C=Nn2c(C3CCCCC3)n[nH]c2=S)c1,0.8,nt,-11,17,8,nt,nt
CC12CCC(O)CC1=CCC1C2CCC2(C)c3[nH]ncc3CC12 (configuration not stated),4.1,4061,18,7,5,nt,-12
Cc1c(Cl)cccc1NC(=S)NC(=O)c1cncc(Br)c1,-6.6,4123,57,1,3,1,-15
O=C(Nc1cccc(-c2ccc(N3CCCCC3)nn2)c1)C(F)(F)F,5.8,5990,3,-5,5,4,75*
Cc1cc(NC(=O)CCC(=O)N(c2ccccc2C)C(C(=O)NC2CCCC2)c2ccccc2)no1 (configuration not stated),-1.0,3033,1,-6,-5,2,-6
O=C1NC(=S)N/C1=C/c1cccc([N+](=O)[O-])c1,6.0,4539,5,10,1,-6,-21

# Just Sa ugtP lethal, for some of the entries so far:
SMILES	Sa ugtP lethal
COC(=O)C1=C(N)Oc2cc(C)oc(=O)c2C1c1cccnc1 (configuration not stated)	0
COc1ccc(OCCC(=O)OCC(=O)Nc2cccc(S(=O)(=O)N3CCCCC3)c2)cc1	5
COc1cc(NC(=O)CCCNC(=O)c2ccc(Cl)cc2)cc(OC)c1OC	6
CCOC(=O)c1cccc(N2C(N)=NC(N)=NC2(C)C)c1	4
COc1cccc(C=Nn2c(C3CCCCC3)n[nH]c2=S)c1	-11
CC12CCC(O)CC1=CCC1C2CCC2(C)c3[nH]ncc3CC12 (configuration not stated)	18

# (further entries)
SMILES,Sa RN4220 lethal,Bead autofluor,Sa ugtP lethal,Mtb hypoxia inh,Mtb hypoxia inh growth,BJeLR viability,PrP UTR inh
COc1ccccc1C(=O)COC(=O)COc1ccc(C#N)cc1,1.7,4372,2,8,5,nt,-21
O=C1CC(N2CCN(c3cccc(C(F)(F)F)c3)CC2)C(=O)N1c1ccccc1F (configuration not stated),-8.9,3123,-9,7,6,2,-18
Cn1c(NC(=O)C[n+]2cc(-c3ccc(Cl)cc3)n3c2CCC3)cc(=O)n(C)c1=O,1.9,2882,4,-11,4,-13,-17
CCOC(=O)N1CCN(Cc2nc3cc(NC(=O)C(C)C)ccc3n2CC)CC1,4.1,3269,2,3,-1,5,21
COCCn1c(C)cc(C(=O)COC(=O)CNC(=O)c2ccco2)c1C,1.8,6599,7,5,-17,nt,-16
COc1ccc(CCN(C)Cc2ccc(OCc3ccccc3)c(OC)c2)cc1OC,3.7,7631,9,-3,10,-7,-12
S=C(Nc1ccc2nccnc2c1)N1CCOCC1,6.4,2575,5,5,0,7,-66
c1ccc(CSc2nnc(-c3cccnc3)o2)cc1,2.7,2453,7,40*,26*,-2,-49
COc1ccc(N(CCC(=O)O)S(=O)(=O)c2ccc(C)c(C)c2)cc1,2.6,4539,2,13,9,-2,-15
CCCS(=O)(=O)N1CCN(S(=O)(=O)c2ccc(F)cc2)CC1,-0.2,4808,-1,nt,nt,-6,-13
COC(=O)[C@@]12CCCN1[C@H](c1ccc(-c3cccc(Cl)c3)cc1)[C@H]1C(=O)N(C)C(=O)[C@H]12,nt,3957,nt,nt,nt,-13,-3
COC(=O)c1cccc(NC(=S)NCc2ccc(Cl)cc2)c1,-29,2701,-17,-3,-1,0,-30

# Ordered by count of non-hydrogen atoms (largest number first): part of the list above
SMILES,Sa RN4220 lethal,Bead autofluor,Sa ugtP lethal,Mtb hypoxia inh,Mtb hypoxia inh growth,BJeLR viability,PrP UTR inh
Cn1c(NC(=O)C[n+]2cc(-c3ccc(Cl)cc3)n3c2CCC3)cc(=O)n(C)c1=O,1.9,2882,4,-11,4,-13,-17
COCCn1c(C)cc(C(=O)COC(=O)CNC(=O)c2ccco2)c1C,1.8,6599,7,5,-17,nt,-16
COc1ccc(N(CCC(=O)O)S(=O)(=O)c2ccc(C)c(C)c2)cc1,2.6,4539,2,13,9,-2,-15

# In another format: 5 of the compounds above.
mol | Sa RN4220 lethal | Bead autofluor | Sa ugtP lethal | Mtb hypoxia inh | Mtb hypoxia inh growth | BJeLR viability | PrP UTR inh
c1ccc(CSc2nnc(-c3cccnc3)o2)cc1 | 2.7 | 2453 | 7 | 40* | 26* | -2 | -49
COc1ccc(N(CCC(=O)O)S(=O)(=O)c2ccc(C)c(C)c2)cc1 | 2.6 | 4539 | 2 | 13 | 9 | -2 | -15
CCCS(=O)(=O)N1CCN(S(=O)(=O)c2ccc(F)cc2)CC1 | -0.2 | 4808 | -1 | nt | nt | -6 | -13
COC(=O)[C@@]12CCCN1[C@H](c1ccc(-c3cccc(Cl)c3)cc1)[C@H]1C(=O)N(C)C(=O)[C@H]12 | nt | 3957 | nt | nt | nt | -13 | -3
COC(=O)c1cccc(NC(=S)NCc2ccc(Cl)cc2)c1 | -29 | 2701 | -17 | -3 | -1 | 0 | -30

# Remaining list, next part
SMILES,Sa RN4220 lethal,Bead autofluor,Sa ugtP lethal,Mtb hypoxia inh,Mtb hypoxia inh growth,BJeLR viability,PrP UTR inh
COc1ccccc1C=NC(CO)C(O)c1ccc([N+](=O)[O-])cc1 (configuration not stated),2.0,4186,8,nt,nt,1,-17
COc1cc(SC)ccc1C(=O)N1CCN(Cc2ccc3c(c2)OCO3)CC1,-0.2,3926,6,18,4,-10,-18
Cc1ccc(-c2nnc(-c3ccccc3)c(-c3ccccc3)n2)cc1,-8.5,2159,92*,23,5,5,-6
C=C(C)c1cccc(C(C)(C)NC(=O)Nc2ccc3[nH]c(=O)[nH]c3c2)c1,-25,2883,-3,21,-20,-7,-6
